# Compound activity (PubChem)
# Mtb betalactam – beta-lactam sensitization of Mtb H37Rv, H37Rv; 330,000 compounds, 0.27% hits; inhibition, % at 25 µM; M. tuberculosis H37Rv growth with meropenem, percent inhibition; hits of this screen are not shown here; AID 434955, 2010;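 active means about 74% or more and at least 40 points above the plate without the antibiotic, then above 30% in a dose series; inconclusive means first-round hits that could not be retested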;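 further: growth measured after seven days incubation then overnight dye step; 0% = bacteria only wells and 100% = bacteria with antibiotic; twin plates without the antibiotic show which effects depend on it; some results filed as inactive read as strong as hits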
# YopH inh – YopH tyrosine phosphatase inhibitors, primary screen, biochemical, fluorescence Ex485/Em525; YopH tyrosine phosphatase [Yersinia enterocolitica]; inhibition, %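 (about 10 µM by stock and volumes)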; 140,000 compounds, 0.16% hits;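 active means inhibition of 50% or more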;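 further: controls were vehicle for no effect and minimum signal wells for full effect; inactives centre near -20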
# Mtb H37Rv – M. tuberculosis H37Rv growth inhibitors, H37Rv strain (AID 1626) | M. tuberculosis H37Rv growth inhibition; higher % means a stronger effect | one-dose inhibition, % at 10 µM; IC50 in µM for titrated hits | 220,000 compounds, 0.95% hits;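 active means confirmed in a dose series; inconclusive means inhibition above 80% but not taken into the dose series; inactive means below 80% or under 30% at every dose of the series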;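 further: bacteria incubated seven days before Alamar blue readout; 0% = bacteria only wells and 100% = bacteria with antibiotic wells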
# RecA intein inh – Mtb RecA intein splicing inhibitors, primary screen, biochemical, fluorescence, HTS; cell-free RecA intein splicing; 290,000 compounds, 0.75% hits; Protein RecA (Mycobacterium tuberculosis (strain ATCC 25618 / H37Rv)), P9WHJ3; inhibition, %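 (about 9 µM by stock and volumes)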; in the data active means inhibition above about 30%; inconclusive means no clear call, values can overlap the other calls;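 further: 0% = vehicle wells and 100% = reference inhibitor control wells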
# Target sequence (P9WHJ3 whole entry, looked up): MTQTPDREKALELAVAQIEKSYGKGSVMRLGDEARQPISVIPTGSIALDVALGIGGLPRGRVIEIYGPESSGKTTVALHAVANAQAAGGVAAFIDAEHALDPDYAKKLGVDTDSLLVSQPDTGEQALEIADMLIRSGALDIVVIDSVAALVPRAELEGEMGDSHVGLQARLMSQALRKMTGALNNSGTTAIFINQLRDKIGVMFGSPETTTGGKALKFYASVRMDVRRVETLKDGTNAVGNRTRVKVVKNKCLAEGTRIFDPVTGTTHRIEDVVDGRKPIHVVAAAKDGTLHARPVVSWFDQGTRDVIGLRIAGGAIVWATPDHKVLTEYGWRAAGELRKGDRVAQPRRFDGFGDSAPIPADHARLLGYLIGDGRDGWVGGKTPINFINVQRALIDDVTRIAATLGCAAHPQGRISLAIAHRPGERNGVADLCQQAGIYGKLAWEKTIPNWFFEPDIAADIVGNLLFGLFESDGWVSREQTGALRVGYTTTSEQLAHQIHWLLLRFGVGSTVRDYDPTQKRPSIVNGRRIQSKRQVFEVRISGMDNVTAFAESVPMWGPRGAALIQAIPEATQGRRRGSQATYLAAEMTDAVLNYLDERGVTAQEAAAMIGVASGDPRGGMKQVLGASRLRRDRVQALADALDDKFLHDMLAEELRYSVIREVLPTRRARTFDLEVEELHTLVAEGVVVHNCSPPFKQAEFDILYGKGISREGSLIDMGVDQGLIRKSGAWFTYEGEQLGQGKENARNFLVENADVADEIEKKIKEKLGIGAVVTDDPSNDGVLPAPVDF
# Arbovirus anti – antivirals against arbovirus infection, primary screen, cell-based, full library, 10K replicate subset; inhibition, % at 10 µM; 200,000 compounds, 0.37% hits; arbovirus infection cell-based antiviral screen;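 active means inhibition from about 30%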;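 further: bluetongue infection of BSR cells; cell survival read as ATP light after 72 h; 0% = infected wells without compound and 100% = uninfected wells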
# Numbers without * were called inactive; u = inconclusive; x = not tested or not shown; & = joins results of further samples. The list is partial; the hit share may differ from the screen's.
# The line under a structure holds: Mtb betalactam	YopH inh	Mtb H37Rv	RecA intein inh	Arbovirus anti
1	NC(N)=O
→ -7	x	-2%	-0.1	x
2	CCn1cc(C(=O)O)c(=O)c2cnc(N3CCNCC3)nc21
→ -1	-28	-8%	-0.4	8
3	CCCCCC(=O)O[C@]1(C(C)=O)CC[C@H]2[C@@H]3CCC4=CC(=O)CC[C@]4(C)[C@H]3CC[C@@]21C
→ 12	-42	-12%	33*	-34
4	NC1CCN(c2nc3c(cc2F)c(=O)c(C(=O)O)cn3-c2ccc(F)cc2F)C1 (centres undefined)
→ 100	x	1.3µM*	-2.2	x
5	O=C(O)c1cccnc1Nc1cccc(C(F)(F)F)c1
→ 0	-37	-3%	-1.2	27
6	CC(=O)CCCCn1c(=O)c2c(ncn2C)n(C)c1=O
→ -1	-18	-3%&1%	0.7	1&2
7	CCc1ccc(CCOc2ccc(CC3SC(=O)NC3=O)cc2)nc1 (centres undefined)
→ 64	x	-1%	1.0	x
8	Cc1ccc(=O)n(-c2ccccc2)c1
→ 6	x	-10%	-1.3	x
9	O=c1oc2c(O)c(O)cc3c(=O)oc4c(O)c(O)cc1c4c23
→ -7	-5	x	x	-32
10	COc1ccc(C[C@H]2COC(=O)[C@@H]2Cc2ccc(OC3OC(CO)C(O)C(O)C3O)c(OC)c2)cc1OC (some centres undefined)
→ -2	-44	-5%	-0.4	4
11	CNCCCN1c2ccccc2CCc2ccccc21
→ -1	-13	-8%	1.0	-33
12	Cc1ccc(N(CC2=NCCN2)c2cccc(O)c2)cc1
→ -2&-3&-6	-21&-45&-59	-4%&-8%&-12%	-2.9&-2.4&-0.6	-7&25&24
13	C1COC(NC(C2CC2)C2CC2)=N1
→ -9	-32	-5%	1.3	-4
14	Oc1ccc(C2CNCCc3c2cc(O)c(O)c3Cl)cc1 (centres undefined)
→ 0&2	x	-6%	-6.9	x
15	CC12CCC(=O)C=C1CCC1C2CCC2(C)C1CCC2(O)C(=O)CO (centres undefined)
→ -5	x	-4%	5.9	x
16	CC(=O)Nc1ccc(CC(=O)O)cc1
→ 1	x	-9%&-8%	-1.8	16
17	CN(C)CCCC1(c2ccc(F)cc2)OCc2cc(C#N)ccc21 (centres undefined)
→ 2	-18	-8%&-1%	-1.1	-10&-12
18	CN1CCCN=C1COC(=O)C(O)(c1ccccc1)C1CCCCC1 (centres undefined)
→ 1	-44	-1%	-1.2	3
19	CC[C@@H]1C(=O)OC[C@@H]1Cc1cncn1C
→ -4&-5	-7&-19	-10%&-1%&-6%	1.7&0.5	16&11&4
20	N#Cc1ccc(C(c2ccc(C#N)cc2)n2cncn2)cc1
→ x	x	-6%&-2%	1.2	6
21	Cc1cncn1CCc1nc2c3ccccc3nc(SCC(=O)Nc3cccc(Cl)c3)n2n1
→ 95	-8	20%	5.3	-8
22	CCC(NC(C)C)C(O)c1ccc(O)c2[nH]c(=O)ccc12 (centres undefined)
→ 4	-40	-10%	-107	2
23	Cc1cccc2c1NC(=O)C2(c1ccc(O)cc1)c1ccc(O)cc1
→ -5	-15	-5%	12	4
24	CC(C)=CCOc1c2ccoc2cc2oc(=O)ccc12
→ -1	-44	16%	3.3	-1
25	CC1Cc2ccccc2N1NC(=O)c1ccc(Cl)c(S(N)(=O)=O)c1 (centres undefined)
→ -2	-31	-4%	-1.7	8
26	COc1cc2ncnc(Nc3cccc(Cl)c3)c2cc1OC
→ x	x	-3%	x	23
27	C/C=C(/C)C(=O)OC(C)(C)[C@@H]1Cc2c(ccc3ccc(=O)oc23)O1
→ -12	-38	13%	3.0	-4
28	COc1ccc(-c2cc(=O)c3c(O)cc(OC4OC(COC5OC(C)C(O)C(O)C5O)C(O)C(O)C4O)cc3o2)cc1O (centres undefined)
→ -2	x	x	-2.7	x
29	CCCc1nc(C(C)(C)O)c(C(=O)O)n1Cc1ccc(-c2ccccc2-c2nn[nH]n2)cc1
→ 0	x	-10%&0%	0.0	7
30	C=CC[n+]1ccc(/C=C2\C=Cc3cc(C)ccc3N2CC)c2ccccc21
→ x	x	u	x	-22

# 2 compounds picked at random from the list so far:
# The line under a structure holds: Mtb betalactam	YopH inh	Mtb H37Rv	RecA intein inh	Arbovirus anti
1	NC(N)=O
→ -7	x	-2%	-0.1	x
26	COc1cc2ncnc(Nc3cccc(Cl)c3)c2cc1OC
→ x	x	-3%	x	23

# (next part)
# The line under a structure holds: Mtb betalactam	YopH inh	Mtb H37Rv	RecA intein inh	Arbovirus anti
31	CCN(CC)CCOC(=O)c1ccc(N)cc1
→ -1	x	x	0.9	x
32	COc1ccc(C2CNC(=O)C2)cc1OC1CCCC1 (centres undefined)
→ -1	-18	2%&-10%&0%	0.6	-3&-1&-4
33	CCCCNc1ccc(C(=O)OCCN(C)C)cc1
→ -7	-31	6%	2.2	-16
34	COc1ccc(-c2cc(=O)c3c(O)cc(O[C@@H]4O[C@H](CO[C@@H]5O[C@@H](C)[C@H](O)[C@@H](O)[C@H]5O)[C@@H](O)[C@H](O)[C@H]4O)cc3o2)cc1O
→ 3	x	x	-2.6	x
35	O=C(O)CCC(=O)c1ccc(-c2ccccc2)cc1
→ 1	-32	0%	-38	-9
36	CN(C)CCC[C@]1(c2ccc(F)cc2)OCc2cc(C#N)ccc21
→ -4	x	x	-0.2	x
37	C/C=C/C(=O)N(CC)c1ccccc1C
→ -4	x	-8%&-3%	x	-3
38	CCOC(=O)[C@H](CCc1ccccc1)N[C@@H](C)C(=O)N1Cc2ccccc2C[C@H]1C(=O)O
→ 1	x	-8%	-4.6	x

# Just Arbovirus anti and Mtb betalactam (seven entries from above):
no.	compound	Arbovirus anti	Mtb betalactam
31	CCN(CC)CCOC(=O)c1ccc(N)cc1	x	-1
33	CCCCNc1ccc(C(=O)OCCN(C)C)cc1	-16	-7
34	COc1ccc(-c2cc(=O)c3c(O)cc(O[C@@H]4O[C@H](CO[C@@H]5O[C@@H](C)[C@H](O)[C@@H](O)[C@H]5O)[C@@H](O)[C@H](O)[C@H]4O)cc3o2)cc1O	x	3
35	O=C(O)CCC(=O)c1ccc(-c2ccccc2)cc1	-9	1
37	C/C=C/C(=O)N(CC)c1ccccc1C	-3	-4
36	CN(C)CCC[C@]1(c2ccc(F)cc2)OCc2cc(C#N)ccc21	x	-4
38	CCOC(=O)[C@H](CCc1ccccc1)N[C@@H](C)C(=O)N1Cc2ccccc2C[C@H]1C(=O)O	x	1

# A different layout for some results above:
(33) CCCCNc1ccc(C(=O)OCCN(C)C)cc1
  Mtb betalactam = -7 | YopH inh = -31 | Mtb H37Rv = 6% | RecA intein inh = 2.2 | Arbovirus anti = -16
(32) COc1ccc(C2CNC(=O)C2)cc1OC1CCCC1 (centres undefined)
  Mtb betalactam = -1 | YopH inh = -18 | Mtb H37Rv = 2%&-10%&0% | RecA intein inh = 0.6 | Arbovirus anti = -3&-1&-4
(37) C/C=C/C(=O)N(CC)c1ccccc1C
  Mtb betalactam = -4 | YopH inh = x | Mtb H37Rv = -8%&-3% | RecA intein inh = x | Arbovirus anti = -3
(34) COc1ccc(-c2cc(=O)c3c(O)cc(O[C@@H]4O[C@H](CO[C@@H]5O[C@@H](C)[C@H](O)[C@@H](O)[C@H]5O)[C@@H](O)[C@H](O)[C@H]4O)cc3o2)cc1O
  Mtb betalactam = 3 | YopH inh = x | Mtb H37Rv = x | RecA intein inh = -2.6 | Arbovirus anti = x

# Of the compounds above, three have sulfur.
# The line under a structure holds: Mtb betalactam	YopH inh	Mtb H37Rv	RecA intein inh	Arbovirus anti
7	CCc1ccc(CCOc2ccc(CC3SC(=O)NC3=O)cc2)nc1 (centres undefined)
→ 64	x	-1%	1.0	x
21	Cc1cncn1CCc1nc2c3ccccc3nc(SCC(=O)Nc3cccc(Cl)c3)n2n1
→ 95	-8	20%	5.3	-8
25	CC1Cc2ccccc2N1NC(=O)c1ccc(Cl)c(S(N)(=O)=O)c1 (centres undefined)
→ -2	-31	-4%	-1.7	8
